Compound activity (PubChem BioAssay)
Autofluor counter: flagged as autofluorescent in microsphere protease counterscreen; actives 3.1% (n = 360,000); compound autofluorescence counterscreen, microsphere flow cytometry; active compounds read high; AID 624483; fluorescence intensity (no concentration beside the values);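 active = at least 3 SD above the mean of all compounds, about 16000 in these data; inconclusive = too few beads counted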;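 note: 100 nL of 1 mM stock went into each well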
BJeLR viability: kills HRASV12-expressing BJeLR cells | BJeLR (HRASV12) viability, CellTiter-Glo ATP luminescence, 48 h; reference of the scale not given here | inhibition, % (test concentration not listed) | actives 0.17% (n = 300,000);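 active = replicate mean above 50%; inconclusive = above 50% but judged a plate artefact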;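 note: 50 nL library stock added to about 25 µL; numbers are from one replicate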
ugtP null kill: kills S. aureus RN4220 lacking UgtP; S. aureus RN4220 ugtP deletion, OD600 growth, 16 h; some inactives read as strong as hits; growth inhibition, % (concentration not given with the values); actives 0.54% (n = 330,000); AID 1259309;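 active = z-score under -3 and OD600 up to 0.15 on both plates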;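 note: plate controls were untreated wells for no effect and antibiotic for full effect; wells of about 80 µL received 100 nL stock; the first replicate is given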
RN4220 kill: kills Staphylococcus aureus RN4220 | S. aureus RN4220 growth, OD600, 16 h | inhibition, % (no concentration beside the values) | actives 0.33% (n = 330,000);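 active = z-score of -3 or lower and OD600 up to 0.18 on both plates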;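 note: plate controls were untreated cells for no effect and reference antibiotic for full effect; stock transfer was 100 nL into about 80 µL; one replicate is shown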
Mtb hypoxia inh: reduces hypoxia-regulated biosensor signal in M. tuberculosis. M. tuberculosis hypoxia-regulated fluorescent reporter, fluorescence. fluorescence inhibition, % (no concentration beside the values). actives 0.1% (n = 300,000);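 active = 35 to 45% if threefold the growth effect, above 45% if 1.5-fold the growth effect; inactive = the rest, general growth blockers included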;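 note: wells of about 50 µL received 100 nL stock; 0% = vehicle wells and 100% = reference inhibitor wells; whole bacteria with a GFP reporter of the hypoxia response; strong numbers were not always called active; many hits fall short of the cut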
PrP 5UTR inh: inhibition of PrP 5' UTR reporter expression | cell-based PrP 5' UTR mRNA reporter, plate reader | inhibition, % (concentration not given with the values) | actives 0.35% (n = 340,000);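 active = every replicate at 50% or more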;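 note: 0 = median of the neutral control wells; tested in H4 reporter cells; numbers are from one replicate; inactives centre near -14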
Mtb hypoxia inh growth: recorded beside Mtb hypoxia inh, whose call it bears; growth inhibition, %; measured here: M. tuberculosis growth (absorbance);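 0% = vehicle and 100% = reference antibiotic; read after six days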
An asterisk follows results filed as active; & = joins results of further samples.

Screening Cc1ccccc1C(=O)Nc1nnc(S(=O)(=O)N2CCCCC2)s1 returned Autofluor counter 5911, BJeLR viability 1, ugtP null kill 7, RN4220 kill 7.2, Mtb hypoxia inh 1, PrP 5UTR inh -18 and Mtb hypoxia inh growth 1.
COc1ccc(C(C(=O)NCC2CCCO2)N(Cc2ccccc2)C(=O)CNC(=O)c2ccco2)cc1OC (configuration not stated) was read as Autofluor counter 3385, BJeLR viability 2, ugtP null kill 2, RN4220 kill 1.8, Mtb hypoxia inh 7, PrP 5UTR inh 7 and Mtb hypoxia inh growth -1.
For CCC(=O)Nc1ccc(C(=O)Nc2ccc3c(c2)OCO3)cc1 the results were Autofluor counter 2425, BJeLR viability 9, ugtP null kill -8, RN4220 kill -16, Mtb hypoxia inh 6, PrP 5UTR inh -26 and Mtb hypoxia inh growth 7.
`Cc1oc(-c2ccc(Cl)cc2)nc1CN1CCC(C(=O)NCc2ccco2)CC1` gave Autofluor counter 4636, BJeLR viability 5, ugtP null kill 9, RN4220 kill -1.1, Mtb hypoxia inh 8, PrP 5UTR inh -6 and Mtb hypoxia inh growth 4.
`COc1cc(OC)c(OC)cc1CN1CCc2ccccc2C1` gave Autofluor counter 10220, BJeLR viability 4, ugtP null kill -1, RN4220 kill 1.2, Mtb hypoxia inh 16, PrP 5UTR inh -3 and Mtb hypoxia inh growth 7.
Screening COc1ccc(C2C(C(C)=O)=C(O)C(=O)N2c2nccs2)cc1OC (configuration not stated) returned Autofluor counter 2404, BJeLR viability 14, ugtP null kill 8, RN4220 kill 3.8, Mtb hypoxia inh 4, PrP 5UTR inh -6 and Mtb hypoxia inh growth 0.
Screening COc1ccc(C(=O)Nc2ccccc2C(=O)N2CCCCC2C)cc1 (configuration not stated) returned Autofluor counter 2514, BJeLR viability 2, ugtP null kill 8, RN4220 kill -3.5, Mtb hypoxia inh -3, PrP 5UTR inh -42 and Mtb hypoxia inh growth 8.
Screening COCCC(=O)N1CCCC(CNS(=O)(=O)c2ccc(OC)cc2)C1 (configuration not stated) returned Autofluor counter 3291, BJeLR viability -9, ugtP null kill 4, RN4220 kill 0.9, Mtb hypoxia inh 14, PrP 5UTR inh 12 and Mtb hypoxia inh growth 3.
COC(=O)[C@H](Cc1ccccc1)NC(=O)N1CCN(Cc2ccccc2)CC1 was read as Autofluor counter 23718*, BJeLR viability -2, ugtP null kill 3, RN4220 kill 2.3, Mtb hypoxia inh 0, PrP 5UTR inh -20 and Mtb hypoxia inh growth -4.
Screening CCC(=O)NC(=S)Nc1ccc(NC(=O)c2cccnc2)cc1 returned BJeLR viability -11, ugtP null kill 47, RN4220 kill 5.1 and PrP 5UTR inh -17.
O=C(O)c1cc(N2C(=O)CCC2=O)ccc1Cl was read as Autofluor counter 4353, BJeLR viability -5, ugtP null kill 14, RN4220 kill 2.2, Mtb hypoxia inh 9, PrP 5UTR inh -7 and Mtb hypoxia inh growth 6.
CC(Oc1ccc(Cl)cc1Cl)C(=O)Nn1cnnc1 (configuration not stated) was read as Autofluor counter 9793, BJeLR viability 7, ugtP null kill 7, RN4220 kill 3.0, Mtb hypoxia inh 5, PrP 5UTR inh -5 and Mtb hypoxia inh growth 3.
COCCNS(=O)(=O)c1cc(C(=O)O)ccc1OC was read as Autofluor counter 4145, BJeLR viability 6, ugtP null kill 11, RN4220 kill 5.7, Mtb hypoxia inh 10, PrP 5UTR inh -56 and Mtb hypoxia inh growth 1.
Clc1ccc(C2C3CN(Cc4cccnc4)C(c4ccccc4)C34CC2(c2ccccc2)C4)cn1 (configuration not stated) was read as ugtP null kill -1, RN4220 kill -5.1, Mtb hypoxia inh -3 and Mtb hypoxia inh growth 16.
`Fc1ccccc1OCCCCCN1CCCC1` gave Autofluor counter 3405, BJeLR viability 6, ugtP null kill 4, RN4220 kill 1.8, Mtb hypoxia inh 3, PrP 5UTR inh -13 and Mtb hypoxia inh growth -3.
For CC1=[N+](C)N(c2ccccc2)C(=O)C1N=Cc1ccc(Cl)cc1 (configuration not stated) the results were Autofluor counter 2506, BJeLR viability -3, ugtP null kill 4, RN4220 kill 7.5, Mtb hypoxia inh -3, PrP 5UTR inh -1 and Mtb hypoxia inh growth -6.
`COc1ccc2oc(=O)c(C(=O)NC3CCCCCC3)cc2c1` gave Autofluor counter 4439, BJeLR viability -2, ugtP null kill 5, RN4220 kill -3.2, Mtb hypoxia inh 4, PrP 5UTR inh -53 and Mtb hypoxia inh growth 14.
For CCCCOc1ccc(C(=O)NCC(=O)N(C)Cc2nc3ccccc3c(=O)[nH]2)cc1 the results were Autofluor counter 3793, ugtP null kill 13, RN4220 kill -1.4, Mtb hypoxia inh 10, PrP 5UTR inh -10 and Mtb hypoxia inh growth 4.
Screening Cc1ccc(OCC(=O)NNC(=O)C2CC(=O)N(c3ccc4c(c3)OCCO4)C2)cc1 (configuration not stated) returned Autofluor counter 5694, BJeLR viability 10, ugtP null kill 3, RN4220 kill 2.3, Mtb hypoxia inh -1, PrP 5UTR inh -26 and Mtb hypoxia inh growth -2.
For CCn1c(=O)n(CC)c2cc(N3CCCC3)c(NC(=O)c3ccccc3Br)cc21 the results were Autofluor counter 4485, BJeLR viability -1, ugtP null kill 0, RN4220 kill 2.7, Mtb hypoxia inh -8, PrP 5UTR inh -8 and Mtb hypoxia inh growth 8.
`COc1cc(CNC(=O)CCCCCCC(C)C)ccc1O` gave Autofluor counter 4322, ugtP null kill 5, RN4220 kill 0.4, Mtb hypoxia inh 1, PrP 5UTR inh -5 and Mtb hypoxia inh growth 0.
O=C(CCSc1nnc2scc(-c3ccccc3)n12)NCc1ccc2c(c1)OCO2 was read as Autofluor counter 16498*, BJeLR viability -7, ugtP null kill 3, RN4220 kill 1.4, Mtb hypoxia inh 3, PrP 5UTR inh -17 and Mtb hypoxia inh growth 3.
For COc1cccc(NC(=O)Nc2ccccc2Br)c1 the results were Autofluor counter 2656, BJeLR viability -12, ugtP null kill 4, RN4220 kill 0.2, Mtb hypoxia inh 14, PrP 5UTR inh -92 and Mtb hypoxia inh growth -1.
For Cc1nn(C(C)C(=O)NCCCN(Cc2ccccc2)C(C)C)c(=O)c2c1sc1ccccc12 (configuration not stated) the results were Autofluor counter 5409, BJeLR viability -4, ugtP null kill 6, RN4220 kill 1.6, Mtb hypoxia inh -3, PrP 5UTR inh -22 and Mtb hypoxia inh growth 4.
Screening NC(=O)C1(N2CCCCC2)CCN(C(=O)CSc2nc3ccccc3o2)CC1 returned Autofluor counter 3535, BJeLR viability 0, ugtP null kill 10, RN4220 kill -1.3 and PrP 5UTR inh -10.
CCN(CC)C(=O)[C@H]1CC(CC(=O)NCCc2ccccn2)C(=O)N2CCc3c([nH]c4ccccc34)[C@]12C (some centres not stated) was read as Autofluor counter 3398, ugtP null kill 10, RN4220 kill 3.0, Mtb hypoxia inh 4, PrP 5UTR inh -25 and Mtb hypoxia inh growth 3.
`Cc1nnc(Cn2cnc3c2c(=O)n(C)c(=O)n3C)o1` gave Autofluor counter 3720, BJeLR viability 1, ugtP null kill -5, RN4220 kill 0.3, Mtb hypoxia inh -15, PrP 5UTR inh -3 and Mtb hypoxia inh growth 7.
Screening Cc1cc(C(=O)NNC(=O)c2cccs2)nn1C(C)(C)C returned Autofluor counter 4525, BJeLR viability 12, ugtP null kill 10, RN4220 kill -0.5, Mtb hypoxia inh 11, PrP 5UTR inh -4 and Mtb hypoxia inh growth -1.
`C=CCOc1c(CNn2cn[nH]c2=S)cccc1OC` gave Autofluor counter 4385, ugtP null kill 2, RN4220 kill 4.2, Mtb hypoxia inh 15, PrP 5UTR inh -20 and Mtb hypoxia inh growth 8.
For COC(=O)[C@H](CC(C)C)NC(=O)N1CCCCC1C (some centres not stated) the results were Autofluor counter 6669, BJeLR viability -4, ugtP null kill 3, RN4220 kill -2.2, Mtb hypoxia inh 3, PrP 5UTR inh -13 and Mtb hypoxia inh growth 3.
C/C(C=NN1CCN(c2ccccn2)CC1)=C\c1ccccc1 was read as ugtP null kill 9, RN4220 kill 7.8, Mtb hypoxia inh -7 and Mtb hypoxia inh growth 1.
For Fc1cc(Br)ccc1NC(=S)Nc1ccccc1 the results were Autofluor counter 2460, BJeLR viability 5, ugtP null kill -10, RN4220 kill -6.6, Mtb hypoxia inh -2, PrP 5UTR inh -49 and Mtb hypoxia inh growth -14.
Cc1ccccc1OCC(O)Cn1c(=N)n(CCN2CCOCC2)c2ccccc21 (configuration not stated) was read as Autofluor counter 6683&5225, BJeLR viability -11&-9, ugtP null kill 2, RN4220 kill -0.6, Mtb hypoxia inh -1, PrP 5UTR inh -3&-4 and Mtb hypoxia inh growth 4.
`CCn1c(=O)n(CC(=O)NCC2CCCO2)c(=O)c2c3c(sc21)CCCC3` (configuration not stated) gave Autofluor counter 5624, BJeLR viability 1, ugtP null kill 18, RN4220 kill 5.1, Mtb hypoxia inh 13, PrP 5UTR inh -30 and Mtb hypoxia inh growth 4.
Cc1ccc2[nH]cc(CCNC(=O)/C=C/c3ccco3)c2c1 was read as Autofluor counter 4102, BJeLR viability -5, ugtP null kill 3, RN4220 kill 3.3, Mtb hypoxia inh 8, PrP 5UTR inh -18 and Mtb hypoxia inh growth 1.
For NC(=O)COC(=O)c1cccc(S(=O)(=O)N2CCCc3ccccc32)c1 the results were Autofluor counter 4230, BJeLR viability 10, ugtP null kill 0, RN4220 kill 7.9, Mtb hypoxia inh 7, PrP 5UTR inh 1 and Mtb hypoxia inh growth 7.
`CCOc1ccc(OCCCC(=O)N(C)CC(=O)Nc2ccc(N3CCOCC3)cc2)cc1` gave Autofluor counter inconclusive, BJeLR viability 1, ugtP null kill -4, RN4220 kill -0.9, Mtb hypoxia inh 4, PrP 5UTR inh -13 and Mtb hypoxia inh growth 8.
Screening Cc1cc(C(=O)CCC(=O)NCC2COc3ccccc3O2)c(C)s1 (configuration not stated) returned Autofluor counter 5271, BJeLR viability 0, ugtP null kill 1, RN4220 kill -0.7, Mtb hypoxia inh -5, PrP 5UTR inh -1 and Mtb hypoxia inh growth 9.
Cc1c(C(=O)OCC(=O)N(C)c2ccccc2)oc2ccccc12 was read as Autofluor counter 4992, BJeLR viability -4, ugtP null kill 4, RN4220 kill 3.8, Mtb hypoxia inh -4, PrP 5UTR inh -6 and Mtb hypoxia inh growth -4.
Screening O=C(Cn1ccc([N+](=O)[O-])n1)NCC1CCCO1 (configuration not stated) returned Autofluor counter 6396, BJeLR viability -2, ugtP null kill 1, RN4220 kill -0.7, Mtb hypoxia inh -2, PrP 5UTR inh -8 and Mtb hypoxia inh growth 6.
`CCOC(=O)c1ccc([N+]([O-])=Cc2ccccc2)cc1` gave ugtP null kill -5, RN4220 kill 3.3, Mtb hypoxia inh 4 and Mtb hypoxia inh growth 7.

5 structures already listed, sorted by heavy-atom count, low to high.
CC(Oc1ccc(Cl)cc1Cl)C(=O)Nn1cnnc1 (configuration not stated) was read as Autofluor counter 9793, BJeLR viability 7, ugtP null kill 7, RN4220 kill 3.0, Mtb hypoxia inh 5, PrP 5UTR inh -5 and Mtb hypoxia inh growth 3.
Screening CCC(=O)NC(=S)Nc1ccc(NC(=O)c2cccnc2)cc1 returned BJeLR viability -11, ugtP null kill 47, RN4220 kill 5.1 and PrP 5UTR inh -17.
Screening COCCC(=O)N1CCCC(CNS(=O)(=O)c2ccc(OC)cc2)C1 (configuration not stated) returned Autofluor counter 3291, BJeLR viability -9, ugtP null kill 4, RN4220 kill 0.9, Mtb hypoxia inh 14, PrP 5UTR inh 12 and Mtb hypoxia inh growth 3.
`CCn1c(=O)n(CC(=O)NCC2CCCO2)c(=O)c2c3c(sc21)CCCC3` (configuration not stated) gave Autofluor counter 5624, BJeLR viability 1, ugtP null kill 18, RN4220 kill 5.1, Mtb hypoxia inh 13, PrP 5UTR inh -30 and Mtb hypoxia inh growth 4.
For CCCCOc1ccc(C(=O)NCC(=O)N(C)Cc2nc3ccccc3c(=O)[nH]2)cc1 the results were Autofluor counter 3793, ugtP null kill 13, RN4220 kill -1.4, Mtb hypoxia inh 10, PrP 5UTR inh -10 and Mtb hypoxia inh growth 4.
